Compound activity deposited in PubChem by ICCB-Longwood Screening Facility, Harvard Medical School.
Ba CapD inh = Bacillus anthracis CapD inhibitors, primary screen, biochemical, fluorescence intensity; actives 0.23% (n = 140,000); CapD gamma-glutamyltranspeptidase (Bacillus anthracis Ames Ancestor); purified CapD enzyme, fluorescence intensity read-out; stronger effect = lower value; some hits fall short of the stated cut; z-score (test concentration not listed);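 active means z-score under -4 in either of two replicates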;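 further: stock transfer was 100 nL into about 40 µL; score is relative to mean and spread of the plate; one replicate is shown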
AID504770 = growth inhibition of E. coli YBA685, primary screen, V. cholerae RctB inhibitors; z-score (test concentration not listed); actives 0.27% (n = 130,000); E. coli YBA685 rctB-dependent plasmid, OD600 growth, 3 h; stronger effect = lower value;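 active means z-score under -2 on both plates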;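 further: wells of about 30 µL received 100 nL stock; score is relative to mean and SD of the test wells; the first replicate is given; strong numbers were not always called active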
Active calls of the source: *; i = inactive; nt = no result given.

Every second line gives: Ba CapD inh, AID504770
> Cc1ccc(OCCN2C(=O)C(C)N(c3ccc(C)cc3)C2=O)cc1 (centres undefined)
    nt, -0.4
> NC(=O)c1c(N)sc2c1CCC2
    -0.125, nt
> N#CCS(=O)(=O)c1ccc(Cl)cc1
    nt, -0.65
> CCc1c(C)c2cc3c(-c4cccc(OC)c4)coc3cc2oc1=O
    3.34, 0.1
> COc1ccc(C(N=C2NS(=O)(=O)c3cc([N+](=O)[O-])ccc32)c2ccccc2)cc1 (centres undefined)
    -0.72, nt
> CCOC(=O)c1cc(-c2ccn[nH]2)on1
    0.08, -0.05
> CSc1cccc(NC(=S)/N=C/N(C)C)c1
    0.46, nt
> CCOCC(=O)Nc1c(C(=O)Nc2ccc(OCC)cc2)oc2ccccc12
    -0.305, 0.05
> COc1ccccc1C(=O)N1CCN(Cc2c[nH]c3ccccc23)CC1
    0.57, -0.9
> CC1(c2ccccc2)CC(C)(C)N(C(=O)CN2C(=O)CCC2=O)c2ccc(C(c3ccccc3)(c3ccccc3)c3ccccc3)cc21 (centres undefined)
    0.435, nt
> C/C(N)=C(/C#N)C(NC(=O)C1CCCCC1)(C(F)(F)F)C(F)(F)F
    0.65, -0.35
> Cn1cccc1Cc1nnc(SCC(=O)NCc2ccccc2)n1C
    0.015, -0.15
> O=C(CN1C(=O)c2ccccc2C1=O)Nc1sc2c(c1-c1nc3ccccc3s1)CCCC2
    -0.42, nt
> COc1ccc(C(=O)NCC(=O)N2CCN(c3ccccc3)CC2)cc1
    0.265, nt
> COC1OC2COC(C2O)C1O (centres undefined)
    0.095, -0.8
> CN(C)CCCNC(=O)c1cc(C(=O)c2ccc(Cl)cc2Cl)c[nH]1
    -0.37, nt
> COC(=O)c1ccc(CSc2nnc(-c3ccc4ncccc4c3)n2C)cc1
    -0.15, -1
> CCN(CC)CCSc1nnc2c3ccccc3n(CC(N)=O)c2n1
    -0.08, -0.2
> COc1ccccc1C(=O)COC(=O)C(C)N=C1NS(=O)(=O)c2ccccc21 (centres undefined)
    nt, 0.2
> CCOC(=O)c1c2ccc(OCc3ccc(C)cc3)cc2n2ccccc12
    0.455, nt

More entries.
Every second line gives: Ba CapD inh, AID504770
> COC(=O)c1sc2nc(SCc3ccccc3C)n(N)c(=O)c2c1C
    0.47, 0.5
> O=C1CSC(c2cn(-c3ccccc3)nc2-c2ccccc2)N1Cc1ccco1 (centres undefined)
    -0.555, nt
> CC1(C)CC(n2cccc2)CC(C)(C)N1
    nt, 0.35
> CC1CCN(Cc2ccc(N)cc2)CC1
    0.055, 0
> Cc1cc(C)c(NC(=O)CN2C(=O)CSCC2=O)c(C)c1
    0.515, 0.7
> CN(C)c1ccc(C(=O)NNC(=O)OCCc2c(F)cccc2Cl)cc1
    1.16, nt
> Cc1[nH]n(-c2ccccc2)c(=O)c1C(c1ccc(OC(=O)c2ccccc2Br)cc1)c1c(C)[nH]n(-c2ccccc2)c1=O
    -0.26, nt
> CS(=O)(=O)c1ncc2c(n1)c(=O)c(C#N)c1[nH]c3ccccc3c(=O)n12
    nt, 2.15
> COc1ccc(OCC2CN=C(Nc3ccc(C)cc3)S2)cc1 (centres undefined)
    -0.045, -0.3
> CC1CCCC(N2CC(C(=O)O)CC2=O)C1C (centres undefined)
    nt, 0.55
> CCC(=O)NC1CC(=O)N(c2cccc(OC)c2)C1 (centres undefined)
    nt, 0.9
> COC(C(=O)NCc1cccnc1)c1ccccc1 (centres undefined)
    0.2, -0.25
> Cn1c(CSc2nc(N)cc(N)n2)n[nH]c1=S
    nt, -0.65
> O=C(O)CSc1ncn(-c2ccccc2)n1
    0.115, nt
> CCN(CC)C/C=C/c1c(F)c(F)c(OC)c(F)c1F
    0.665, 0.05
> O=C(Nc1ccccc1)N1CC=C(c2ccc(F)cc2)CC1
    0.26, -0.75
> COc1cccc(C2C=C(Nc3ccccc3)C(=O)N2c2ccccc2)c1 (centres undefined)
    -0.55, nt
> CC(C(=O)Nc1ccc(F)cc1)C1SC(=O)NC1=O (centres undefined)
    nt, 0.35
> O=C1CN=C(c2ccccc2)c2ccccc2N1
    0.08, nt
> Cc1nn(CC(=O)NC(C)(C)C)c(=O)c2ccccc12
    nt, -1.1

Following part.
Every second line gives: Ba CapD inh, AID504770
> O=C(O)C1CCCN1C(=O)OCc1ccccc1 (centres undefined)
    0.055, -0.7
> O=C(Nc1scc(-c2cccs2)c1C(=O)O)c1ccc(F)cc1
    -0.56, 0
> Cc1noc(C)c1C(=O)OCC(=O)Nc1cc(C(F)(F)F)ccc1N1CCOCC1
    nt, 0.05
> Cc1ccc(C(=O)N2CCN(C(=O)CN3CCCCC3)C2)cc1
    -0.235, nt
> O=C1C(=O)N(c2ccccn2)C(c2cccnc2)/C1=C(/O)c1ccc(Cl)cc1 (centres undefined)
    -0.11, nt
> O=C(OCc1ccccc1)C(O)c1ccccc1 (centres undefined)
    -0.685, -0.8
> COCCn1c(C)c(C(=O)O)sc1=S
    nt, 0.4
> COc1cc(C=C2C(=O)N(C)C(=O)N(C)C2=O)ccc1Oc1ccc([N+](=O)[O-])cn1
    -0.285, nt
> COc1ccc(-c2ccc(N)[n+](CCCC(=O)O)n2)cc1
    -0.105, nt
> N#Cc1c(/N=C/c2ccc(Cl)cc2Cl)oc(-c2ccccc2)c1-c1ccccc1
    1.98, nt
> CC(C)(C)c1ccn(CC(=O)c2ccc(Cl)cc2)n1
    -0.845, -0.65
> COc1cc(OC)nc(OC(Cc2ccc3ccccc3n2)c2cccc(C(F)(F)F)c2)n1 (centres undefined)
    -0.325, nt
> COc1cccc([C@@H]2[C@@H](C(=O)c3ccccc3)N3c4ccc5ccccc5c4C=C[C@@H]3C2(C#N)C#N)c1
    7.86, nt
> O=C(NCC1CCCO1)c1cc(=O)[nH]c2ccc(Br)cc12 (centres undefined)
    -3.51, 0.25
> CCOc1ccc(-c2csc3ncn(CC(N)=O)c(=O)c23)cc1
    nt, -0.6
> CN(C)C1=C(C#N)C(c2ccccc2)=NP(N(C)C)(N(C)C)=N1
    nt, -0.65
> O=C(Nc1cccnc1Sc1nc2cccnc2s1)c1ccc(F)cc1
    0.22, -1.05
> Cn1cnc(S(=O)(=O)Nc2cccc(Cl)c2)c1
    0.175, -1.15
> O=C(O)c1cccc(NC(=O)c2ccccc2C(=O)O)c1
    0.255, -0.4
> Cc1ccc(S(=O)(=O)Nc2c(C)c(C)cc3c2ncn3C(C)C)cc1
    -0.155, nt

New compounds follow
Every second line gives: Ba CapD inh, AID504770
> CN(C)c1ccc(C2Nc3sc4c(c3C(=O)N2C)CCCC4)cc1 (centres undefined)
    2.17, 0.1
> O=C(N/N=C/c1ccc(N2CCCC2)cc1)c1ccc([N+](=O)[O-])cc1Cl
    -0.415, nt
> CSc1cccc(NC(=S)N(CCN2CCCCC2)Cc2ccco2)c1
    -0.425, nt
> S=C(CC(=S)N1CCOCC1)N1CCOCC1
    0.165, -0.95
> Cc1cc(NC(=O)CCOc2ccc(F)cc2)no1
    0.935, -0.9
> CC1(C)CC(=O)C2=C(C1)N(c1ccc([N+](=O)[O-])cc1)C(N)=C(C#N)C2c1ccc2c(c1)OCO2 (centres undefined)
    -0.42, nt
> CC(=O)Oc1ccccc1C(=O)NCCC(C)C
    12.2, 0.2
> OCC1CCCN(c2ncc(C(F)(F)F)cc2Cl)C1 (centres undefined)
    nt, -0.45
> CC1(C)CC(=O)C2=C(C1)c1c(ccc3ccccc13)NC2c1cccc(OCc2cc3c(cc2Cl)OCO3)c1 (centres undefined)
    17, nt
> Cc1ccc(N2CC(=O)Nc3c(sc4nc(C)cc(C)c34)C2=O)cc1
    -0.095, -0.45
> Cc1ccc2[nH]cc(CCNC(=O)OCc3c(F)cccc3Cl)c2c1
    0.54, nt
> CCOc1ccc(CC2SC(N)=NC2=O)cc1 (centres undefined)
    i, 1.5
> O=C(CSc1nc(-c2cccs2)cc(C(F)(F)F)n1)N1CCSCC1
    -0.43, -0.85
> COC(=O)C1=C(C)OC(N)=C(C#N)C1c1cc(OC)ccc1OC (centres undefined)
    0.285, nt
> CCc1ccc(S(=O)(=O)Nc2ccc3oc4c(c3c2)CCCC4)cc1
    -0.355, nt
> CC1(C)CC(=O)C2=C(C1)c1c(ccc3ccccc13)NC2c1ccc(-c2cccc([N+](=O)[O-])c2)o1 (centres undefined)
    0.86, nt
> CC1CCN(c2nc3c(c(=O)[nH]2)CCN(Cc2ccccc2)C3)CC1
    0.53, -0.1
> CSCCC(NC(=O)c1ccc(C(F)(F)F)cc1)C(=O)N/N=C/c1ccc(O)cc1 (centres undefined)
    0.25, nt
> CCn1cnc2sc3c(c2c1=O)CCCC3
    nt, 0.05
> CCCc1cc(C(=O)NC2CCCC2)no1
    -0.155, -0.75

Remaining list, next part
Every second line gives: Ba CapD inh, AID504770
> COC(=O)c1cc(C)cc(=O)o1
    -0.115, -0.85
> CCOC(=O)CCc1c(C)nc2c(c(C)nn2C(C)(C)C)c1C
    8.23, 0.85
> COC(=O)C1=C(C(=O)OC)SC(=C2C(=S)C(C)(C)N(C(=O)CN3C(=O)CCC3=O)c3c(OC)cccc32)S1
    -0.67, nt
> O=C(Cc1cccs1)N1c2ccccc2Sc2ccccc21
    0.12, -0.25
> CCOc1ccc(NC(=O)CSc2nnc(CNC(=O)COc3ccccc3)n2-c2ccc([N+](=O)[O-])cc2)cc1
    -0.72, nt
> O=C(O)C1OCOc2ccccc21 (centres undefined)
    nt, -0.1
> O=C(OCn1nnc2ccccc2c1=O)c1cccnc1
    -0.745, -0.6
> CCNC(=O)CCOc1cccc(C)c1
    nt, -0.05
> Cc1ccccc1C(=O)Nc1sc2c(c1C(=O)Nc1cccc(Cl)c1)CCCCC2
    0.14, nt
> Cc1ccc2nc(NC(=O)C(NS(=O)(=O)c3cccc4nsnc34)C(C)C)sc2c1 (centres undefined)
    -0.94, 1.05
> Cc1nn(C(=O)c2c[nH]c3ccccc23)c(N)c1-c1ccccc1
    -0.6, -0.35
> Cn1cccc1CC(=O)N/N=C1/CCCc2ccccc21
    nt, -0.05
> C[C@]12CC[C@@H](O)C[C@@H]1CC[C@@H]1[C@@H]2CC[C@]2(C)C(=O)CC[C@@H]12
    -0.255, nt
> COc1ccccc1CCOC(=O)N1CCC(C(=O)c2ccc(Cl)cc2)CC1
    -1.21, nt
> COC(=O)COc1cccc(NC(=O)Cc2cccs2)c1
    -0.7, -1.1
> CCOC(=O)C1CCC(CNC(=O)N2CC(CC)Oc3ccccc32)CC1 (centres undefined)
    -0.245, -0.6
> CCc1nc(SCc2ccccc2)[nH]c(=O)c1C
    nt, -0.3
> Cc1nnc2c3ccccc3c(-c3cccs3)nn12
    0.1, -0.7
> CC(=O)NCCn1c(SCc2ccccc2Cl)nc2ccccc2c1=O
    -0.155, -0.4
> COc1ccc(COC(=O)C2=C(C)NC3=C(C(=O)CC(C)(C)C3)C2c2ccc(Cl)c([N+](=O)[O-])c2)cc1 (centres undefined)
    -0.915, nt

(continued)
Every second line gives: Ba CapD inh, AID504770
> NC(=O)CSc1ccc(-c2cccs2)nn1
    -0.03, 0.9
> COc1ccc(/C=C/C23NC(=O)CN2c2ccccc2C3(C)C)cc1OC (centres undefined)
    0.53, nt
> CCC(C)NC(=O)c1c(N)n(/N=C/c2ccc(OC)c(OC)c2)c2nc3ccccc3nc12 (centres undefined)
    nt, -0.6
> CCOc1cc(/C=C2\SC(=S)N(CC)C2=O)cc(Cl)c1O
    -0.81, 1.75
> N#Cc1nc(-c2ccccc2)oc1NCCN1CCCCC1
    42.8, -0.1
> CCSc1nc(NC(C)C)nc(N2CCOCC2)n1
    -0.055, 1.45
> CCNC(=O)C1CCN(S(=O)(=O)c2ccc(C)cc2)CC1
    nt, 0.2
> COC(=O)c1csc2c(C(F)(F)F)cc(N3CCN(S(=O)(=O)c4ccc(C)cc4)CC3)nc12
    49.8, nt
> CCSc1ncc(/C=N/Nc2c(Cl)cc(C(F)(F)F)cc2Cl)n1C
    -0.715, nt
> CCCCc1ccc(NC(=O)/C=N/O)cc1
    nt, -0.35
> CC(C)C1Oc2ccccc2N(CC(=O)N(C)C2CCCCC2)C1=O (centres undefined)
    nt, 0.05
> O=C(Cc1cn2ccsc2n1)OCc1ccccc1
    0.39, 1
> CSC(=NC=[N+](C)C)Nc1ccc(Cl)cc1
    -0.685, nt
> CCOc1nc(Nc2ccccc2)nc(OCC)n1
    nt, 1.6
> CCCC(=O)Nc1nnc(-c2ccccc2F)s1
    0.88, 0.45
> O=S(=O)(Nc1ccc(-c2nnc3n2CCCCC3)cc1)c1ccc(Br)cc1
    nt, 0.55

Taken from above.
`CCOC(=O)c1c2ccc(OCc3ccc(C)cc3)cc2n2ccccc12` in Ba CapD inh = 0.455
`Cc1ccc(N2CC(=O)Nc3c(sc4nc(C)cc(C)c34)C2=O)cc1` in Ba CapD inh = -0.095
`Cc1noc(C)c1C(=O)OCC(=O)Nc1cc(C(F)(F)F)ccc1N1CCOCC1` in AID504770 = 0.05
`Cc1ccc(S(=O)(=O)Nc2c(C)c(C)cc3c2ncn3C(C)C)cc1` in Ba CapD inh = -0.155
`Cc1ccccc1C(=O)Nc1sc2c(c1C(=O)Nc1cccc(Cl)c1)CCCCC2` in Ba CapD inh = 0.14

Quoted at random: 5 records from the list
Every second line gives: Ba CapD inh, AID504770
> COc1ccc(C(=O)NCC(=O)N2CCN(c3ccccc3)CC2)cc1
    0.265, nt
> CCc1c(C)c2cc3c(-c4cccc(OC)c4)coc3cc2oc1=O
    3.34, 0.1
> CCn1cnc2sc3c(c2c1=O)CCCC3
    nt, 0.05
> O=C(Nc1ccccc1)N1CC=C(c2ccc(F)cc2)CC1
    0.26, -0.75
> Cc1ccc(C(=O)N2CCN(C(=O)CN3CCCCC3)C2)cc1
    -0.235, nt
